Cruzain inh noDet = inhibitors of Trypanosoma cruzi cruzain without detergent; P25779; purified cruzain, Z-FR-AMC fluorescence, no detergent; Potency, µM, for inactives: max response, negative = inhibition, usual class: inhibitors; 200,000 tested, 2.3% active; AID 1476; active = well fitted curve in the direction sought with a large enough effect; inconclusive = small, poorly fitted or top-dose-only effect, or another doubt; inactive = no such curve, though single readings can be large; an effect the other way counts as inactive or inconclusive;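 also: plate controls were enzyme without inhibitor for no effect and buffer without enzyme for full effect; nearly all actives have a fitted effect of over 40% in size; top concentration of the series not given in the record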
Target sequence (P25779 123-467 limits assumed): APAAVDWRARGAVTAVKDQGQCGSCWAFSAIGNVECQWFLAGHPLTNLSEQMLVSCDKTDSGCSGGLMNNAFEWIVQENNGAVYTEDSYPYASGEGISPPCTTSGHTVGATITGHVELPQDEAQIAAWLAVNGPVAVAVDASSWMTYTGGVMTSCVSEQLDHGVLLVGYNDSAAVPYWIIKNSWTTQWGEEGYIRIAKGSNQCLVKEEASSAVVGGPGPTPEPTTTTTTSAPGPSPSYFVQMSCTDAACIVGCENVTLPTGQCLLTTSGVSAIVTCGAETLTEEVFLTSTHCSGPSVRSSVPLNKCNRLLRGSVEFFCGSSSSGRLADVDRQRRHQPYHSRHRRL
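Detergent-free condition (0.00005% Triton X-100) in acetate buffer pH 5.5 with DTT. 1.5 nM enzyme and compound were pre-mixed 15 min, then 2 uM Z-FR-AMC substrate added; reaction progress from fluorescence change between first and third reads (60 s).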
Cruzain inh Det = blocks cruzain activity in presence of Triton detergent; P25779; purified cruzain, Z-FR-AMC fluorescence, 0.01% Triton; Potency, µM, without a hit: max response, negative = inhibition, actives largely listed as inhibitors; 200,000 tested, 0.43% active; active = well fitted curve in the direction sought with a large enough effect; inconclusive = small, poorly fitted or top-dose-only effect, or another doubt; inactive = no such curve, though single readings can be large; an effect the other way counts as inactive or inconclusive;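 also: plate controls were neutral wells for no effect and buffer without enzyme for full effect; nearly all actives have a fitted effect of over 40% in size; top concentration of the series not given in the record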
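Detergent-containing run (0.01% Triton X-100) in acetate buffer pH 5.5 with 5 mM DTT: enzyme at 1.5 nM final, 15 min compound preincubation at room temperature, then 2 uM Z-FR-AMC substrate. Activity taken as 60 s fluorescence increase at 360/450 nm.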
LASV entry inh = inhibitors of Lassa virus binding or cell entry; Lassa virus pseudotype entry inhibition, cell reporter; control for the full effect not named in the record; Potency, µM (titrated, usually from 37.9 µM), inactives show at the highest dose activity change, negative = inhibition, most hits filed as inhibitors; 300,000 tested, 1.2% active; active means well fitted inhibition curve with a large enough effect; inconclusive means small, poorly fitted or top-dose-only effect, or effect the other way; inactive means flat fitted curve, though single readings scatter; tested in HEK293 cells; also: % is scaled to controls: 0 for no effect and ±100 for the full control effect; nearly all actives have a fitted effect of over 50% in size; luciferase read-out
RE007 growth inh = less growth of the S. pombe RE007 Vpr strain. 360,000 tested, 0.21% active. S. pombe RE007 Vpr strain, BacTiter-Glo ATP luminescence, 24 h; control for the full effect not named in the record. Potency, µM (highest dose often 92.2 µM), without a hit: at the top dose activity change, negative = less growth. AID 651644; active = well fitted falling curve with a large enough effect; inconclusive = small, poorly fitted or top-dose-only effect; inactive = no such curve, though single readings can be large or run the other way;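 also: % is scaled to controls: 0 for no effect and ±100 for the full control effect; nearly all actives have a fitted effect of over 50% in size; the assay follows cell death caused by Vpr and the record does not say whether a fall means rescue or toxicity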
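Fission yeast strain RE007, carrying one chromosomally integrated HIV-1 vpr copy, was seeded at OD 0.01 in PMG+AL medium with 23 nL pinned compound. After 24 h at 30 °C and 99% humidity, viability was read by BacTiter-Glo luminescence.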
SARS PLpro yeast = blocks SARS-CoV papain-like protease in a yeast assay; S. cerevisiae expressing SARS-CoV PLpro, growth rescue; control for the full effect not named in the record; Potency, µM (series often up to 32.9 µM), inactives show at the top dose activity, positive = growth rescue; 330,000 tested, 0.19% active; AID 485353; also: 0% is about no effect; nearly all actives have a fitted effect of over 55% in size; growth read by luminescence after 48 h
Marburg entry inh = inhibitors of Marburg virus binding or cell entry; 300,000 tested, 1.8% active; Marburg virus pseudotyped entry inhibition, cell reporter; control for the full effect not named in the record; about a third of the inactives were read at about 46 µM; Potency, µM (highest dose often 37.8 µM), for inactives: at the top dose activity change, negative = inhibition, most hits filed as inhibitors; active = well fitted inhibition curve with a large enough effect; inconclusive = small, poorly fitted or top-dose-only effect, or effect the other way; inactive = flat fitted curve, though single readings scatter; tested in HEK293 cells; about a fifth of its hits are not listed in these tables; also: % is scaled to controls: 0 for no effect and ±100 for the full control effect; luciferase read-out
NS1 inh = inhibitors of influenza NS1 protein function. Potency, µM (top dose mostly 46.1 µM), for inactives: at the top dose activity, positive = more growth. 270,000 tested, 0.4% active. AID 2326. S. cerevisiae slowed by influenza A NS1, growth recovery by OD600; also: actives are rising curves; nearly all actives have a fitted effect of over 50% in size
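S. cerevisiae expressing influenza A NS1, grown in glucose, washed, then diluted 1:100 into pH 6.0 -URA galactose medium with 23 nl compound. Growth recovery read as OD600; NS1-free strain serves as control.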
2A StopGo = lowers the luciferase signal of an FMDV 2A StopGo reporter. human cells with a luciferase reporter of 2A StopGo recoding; control for the full effect not named in the record. AID 1159524. Potency, µM (titrated, usually from 57.9 µM), for the others: at the highest dose signal change, negative = less light. 410,000 tested, 1.2% active; active = well fitted falling curve with a large enough effect; inconclusive = small, poorly fitted or top-dose-only effect; inactive = no such curve, though single readings can be large or run the other way; tested in HEK293T cells; also: % is scaled to controls: 0 for no effect and ±100 for the full control effect; nearly all actives have a fitted effect of over 45% in size; luciferase light after 4 h
* marks the source's active call; other numbers are inactive results; u = inconclusive; x = no result given; & = joins results of further samples; [ ] = another dose, or the depositor's remark. Unless noted, calls follow the shape of the dose curve; as a rule, active means well fitted rising curve with a large enough effect; inconclusive means small, poorly fitted or top-dose-only effect; inactive means no such curve, though single readings can be large or run the other way. Potency is read from the fitted curve at half-maximal effect. Random draw from the library; 4.5% or so of the library scored in one or more.

Screens in order – Cruzain inh noDet	Cruzain inh Det	LASV entry inh	RE007 growth inh	SARS PLpro yeast	Marburg entry inh	NS1 inh	2A StopGo
C=CCNc1nnnc2c1sc1nc(N3CCOCC3)c3c(c12)CCCC3
    x	x	18.0%[46.1 µM]	1.4%	-0.3%	4.4%[46.1 µM]	4.1%	-24.0%
C/C(=N/Nc1ccc(F)cc1)c1ccc(Cl)s1
    0.3%	-11.0%	-2.2%	-8.2%	-12.9%	-4.7%	1.9%	-8.4%
O=C(CCSc1ccc(Cl)cc1)N1CCN(c2ccc(O)cc2)CC1
    x	x	u	19.4%	-2.0%	u	-40.2%	5.5%
O=C(C(=O)N1CCOCC1)c1cn(Cc2ccc(F)cc2)c2ccccc12
    x	x	x	-18.2%	0.0%	x	3.5%	12.3%
Cc1ccc(C)c(N2CCN(S(=O)(=O)c3ccc(F)c(C(=O)Nc4ccc(Cl)cc4Cl)c3)CC2)c1
    u	0.5%	u	x	x	x	x	-11.2%
C#CCOC(=O)c1ccc(-n2cncn2)nc1
    -12.0%	-1.4%	-7.9%	-7.6%	1.7%	-20.2%[46.1 µM]	7.2%	21.9%
COc1ccc(NC(=O)C(=O)c2cc(C)n(-c3ccc(C)cc3)c2C)cc1Cl
    12.6%	-6.9%	0.6%[46.1 µM]	x	x	3.3%[46.1 µM]	x	-26.2%
Cc1cccc(N(CC(=O)N2CCCC2)S(=O)(=O)c2ccccc2)c1
    -4.4%	3.5%	0.6%	11.9%	0.7%	-0.8%	-4.2%	-10.0%
CCS(=O)(=O)c1ncc(Cl)c(C(=O)NCc2ccccc2)n1
    -16.5%	-3.2%	u	x	x	u	x	u
CCN1CCN(S(=O)(=O)c2ccc(C)c([N+](=O)[O-])c2)CC1
    5.1%	0.9%	6.7%	7.8%	-9.1%	20.4%	-0.4%	-8.6%
CCOC(=O)c1c(-c2ccc(C)o2)csc1NC(=O)CN1CCN(CC)CC1
    -11.2%	0.3%	u	3.8%	4.4%	u	7.1%	x
CCCCCN(C(=O)CCC(=O)OCCOc1cccc(C)c1)c1c(N)n(CCCC)c(=O)[nH]c1=O
    x	x	-10.7%	8.1%	2.8%	1.8%	x	-12.8%
COC(=O)c1ccc2c(=O)n(CCCCCC(=O)NCCc3ccc(Cl)cc3)c(=O)[nH]c2c1
    1.6%	0.9%	22.9%[46.1 µM]	x	x	x	x	3.3%
O=C(N/N=C/c1c(O)n(CCc2ccc(F)cc2)c(=O)[nH]c1=O)c1ccccc1
    x	x	x	12.6%	2.0%	x	9.4%	4.9%
CCCCN(C(=O)COC(=O)COc1c(C)cc(C)cc1C)c1c(N)n(CCC)c(=O)[nH]c1=O
    x	x	5.2%	6.3%	3.1%	-0.3%[46.1 µM]	x	-14.2%
COc1ccccc1C(=O)N1CCN=C1SC
    -1.4%	0.7%	-8.1%	-2.1%	15.3%	27.6%	-2.2%	-8.8%
O=C(Nc1ccccc1)OCCc1ccccn1
    x	x	-22.5%	-7.7%	x	u	x	-14.8%
Cc1cccc(NC(=O)CCC2CCN(C(=O)C3CC=CCC3)CC2)c1 (configuration not stated)
    x	x	-8.3%	6.1%	29.0%	u	-6.1%	-5.3%
CC1Cn2c(nnc2-c2cccc(Cl)c2)S1 (configuration not stated)
    -0.7%	-3.0%	x	18.7%	7.0%	x	-15.6%	-9.5%
CSc1nsc(SCC(=O)N2CCCc3ccccc32)n1
    -1.7%	-4.3%	20.3%	-4.1%	-6.5%	-0.6%[46.1 µM]	-63.0%	-22.3%
Cc1nn(CCC(=O)Nc2ccccc2Br)c(=O)c2nn(-c3ccccc3)c(C)c12
    10.7%	-0.5%	-1.0%[46.1 µM]	x	x	x	x	-20.1%
COC(=O)c1c(C)noc1-c1cc(C)on1
    4.7%	2.1%	8.8%	-19.4%	-5.8%	6.4%&6.4%	-8.6%	-24.5%
COc1cc(S(=O)(=O)N2CCN=C2c2ccccc2)ccc1Cl
    x	x	13.0%[46.1 µM]	3.4%	-1.5%	6.5%[46.1 µM]	-1.0%	-19.8%
CC(=O)N1CCc2c(sc3c2c(=O)n(-c2ccc(F)cc2)c(=O)n3Cc2ccc(C#N)cc2)C1
    7.5%	0.5%	x	x	x	-3.5%[46.1 µM]	x	-19.3%
COc1ccc(-c2ccc([C@H]3[C@@H]4C=CCC[C@@]4(C)C(=O)N3Cc3ccccc3)c(F)c2)cc1OC
    x	x	x	13.7%	1.9%	x	3.0%	u
O=C(O)c1c(-c2ccccc2)oc2ccc(OCc3ccc(Cl)c(Cl)c3)cc12
    11.3%	-0.6%	u	x	x	x	x	0.8%
Cc1ccc(C(=O)CN2C(=O)C(=O)N(Cc3ccccc3)C2=O)cc1
    x	x	6.7%	-4.0%	1.8%	2.0%[46.1 µM]	5.5%	-14.0%
COc1cc(-n2c(C)nc3cc(C(=O)NCc4ccco4)ccc32)cc(OC)c1OC
    4.4%	3.0%	0.7%	-0.6%	u	-6.9%	-13.8%	-9.5%
CCCCCCC1CC(CSc2ncn[nH]2)OC1=O (configuration not stated)
    3.3%	1.8%	1.6%	0.8%	-3.8%	u	-82.4%	0.0%
Cc1nc(SCC(=O)N2CCOCC2)c2c(=O)n(C)c(=O)n(C)c2n1
    x	x	3.9%	7.5%	3.4%	19.8%[46.1 µM]	-1.3%	-3.5%
Cc1ccccc1NP(=O)(c1ccccc1)c1nc2ccccc2s1 (configuration not stated)
    x	x	x	6.6%	3.5%	13.6%[46.1 µM]	x	60.7%[activator]
CCOc1ccc(CN2C(=O)CCC2(C)C(=O)NCc2cccnc2)cc1 (configuration not stated)
    6.9%	-0.7%	x	-2.1%	9.0%	x	1.3%	-25.5%
Cc1cccc(N2C(=O)CC(Sc3ncn[nH]3)C2=O)c1 (configuration not stated)
    x	x	1.6%[46.1 µM]	u	-12.7%	-16.3%[46.1 µM]	x	-0.7%
C=CCNC(=O)c1onc(CSc2nc3ccccc3[nH]2)c1C(=O)NCC=C
    x	x	x	-3.0%	6.4%	x	0.2%	-14.8%
O=C(O)c1cccc(S(=O)(=O)Nc2ccc(Oc3ccccc3)cc2)c1
    x	x	u	1.4%	-0.9%	-1.1%	x	10.9%
O=C(N/N=C/c1ccc(F)cc1)c1sccc1OCc1ccc(F)cc1
    -5.7%	-5.3%	u	0.5%	u	2.24µM*	0.8%	9.3%
COC(=O)c1scc(-c2ccc(C)cc2)c1S(=O)(=O)Nc1cc(C)ccc1OC
    u	-9.4%	-24.0%[46.1 µM]	x	x	x	x	11.9%
O=C(NCCCn1ccnc1)/C(=C/c1ccco1)NC(=O)c1ccccc1
    x	x	10.1%	-10.4%	x	5.7%	x	14.4%
CS(=O)(=O)N(CCCC(=O)N1CCCCCC1)c1cccc(Cl)c1
    x	x	x	-12.4%	2.4%	x	-5.2%	-8.6%
Cc1oc2c(cc(NS(=O)(=O)c3ccc(Cl)cc3)c3ccccc32)c1C(=O)OCc1ccccc1
    -16.8%	-2.6%	15.2%[46.1 µM]	x	x	-0.2%[46.1 µM]	x	6.6%
CCOC(=O)C1CCCN(C(=O)c2cccc([N+](=O)[O-])c2C)C1 (configuration not stated)
    x	x	-5.2%	-12.6%	1.7%	u	-2.2%	-3.3%
COc1ccc(-n2c(-c3ccc(Cl)cc3)c[n+]3c2CCCCC3)cc1
    x	x	x	6.6%	0.5%	2.8%	-3.0%	0.0%
Cc1ccc2[nH]c(CSc3nnc(NC(=O)COc4ccc(F)cc4)s3)cc(=O)c2c1
    -8.2%	3.5%	-8.5%[46.1 µM]	x	x	x	x	-10.5%
CCN(CC)S(=O)(=O)c1ccc(Cl)c(NC(=O)CCCCl)c1
    x	x	9.6%	2.6%	-0.5%	-6.1%[46.1 µM]	4.7%	6.2%
COc1ccc(CN(C(=O)c2snc(C(N)=O)c2N)C(C(=O)NC2CCCC2)c2ccco2)cc1 (configuration not stated)
    x	x	x	-1.0%	-1.5%	-20.8%[46.1 µM]	-11.8%	22.9%
CC1CCCCN1C(=O)Cn1cc(C(=O)c2ccco2)c2ccccc21 (configuration not stated)
    -1.8%	1.8%	-1.4%	-13.6%	2.8%	-4.8%	u	-18.9%
COCC(=O)OCc1cc2cccc(C)c2[nH]c1=O
    x	x	18.8%	30.7%	0.0%	-20.1%[46.1 µM]	1.4%	-1.8%
COc1ccc(C(=O)NCc2cc3ccccc3n2C)cc1
    x	x	u	-6.8%	-5.2%	13.3%	20.7%	57.4%[activator]
CCN(CC)C(=O)c1sc2nc(-c3cccs3)cc(-c3ccc(Cl)cc3)c2c1N
    31.6µM*	-1.6%	22.1%	2.4%	1.9%	u	4.47µM*	-15.1%
S=C(c1ccc(-c2cc(Cl)ccc2Cl)o1)N1CCCCC1
    -28.2%	-9.2%	-0.7%	0.4%	-11.2%	6.0%	0.4%	13.9%
O=C(CN1C(=O)C2C3C=CC(C3)C2C1=O)NCC1COc2ccccc2O1 (configuration not stated)
    -7.4%	4.9%	-1.0%	1.6%	10.6%	17.7%	-1.2%	9.4%
CC(C)c1cccc(C(C)C)c1OCCn1ccnc1
    5.3%	1.8%	3.5%	1.0%	-2.8%	0.0%	-13.5%	-14.9%
CCCC12CN(C(=O)c3ccco3)CC(CCC)(CN(C(=O)c3ccco3)C1)C2=O
    x	x	5.0%[46.1 µM]	2.2%	-0.4%	-13.8%[46.1 µM]	2.6%	-20.9%
CCCOc1cccc(C(=O)NC(=S)Nc2ccccc2)c1
    -11.5%	-8.6%	-3.2%	-9.1%	28.1%	5.5%	18.2%	31.2%[activator]
CCOc1ccccc1C(=O)Nc1cccc2cccnc12
    x	x	4.4%[46.1 µM]	-7.1%	-3.4%	u	-78.8%	8.2%
CCOC(=O)C1=C(N)OC2=C(C(=O)CC(C)(C)C2)C1c1ccc(CC)s1 (configuration not stated)
    x	x	25.2%[46.1 µM]	2.6%	6.4%	2.8%[46.1 µM]	x	3.2%
COc1ccc(NC(=O)c2noc3c2CSc2ccccc2-3)cc1Cl
    0.8%	-2.6%	u	x	x	-15.7%[46.1 µM]	x	11.0%
